# GIV Gai3 FP – GIV-Galpha-i interaction inhibition. hit rate 0.42% among 210,000. Galpha-i3/FITC-GIV peptide fluorescence polarization, 90 min; active compounds read low; scaled: aluminum fluoride 0%, vehicle 100%. percent of control (FP), % (test concentration not listed). AID 1224905. P08753;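 active = replicate mean at 85% of control or lower, very high polarization wells dropped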;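 also: lower values mean more displacement of the GIV peptide from Galpha-i3; wells of about 15 µL received 100 nL stock; the first replicate is given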
# Target sequence (P08753 whole entry, looked up): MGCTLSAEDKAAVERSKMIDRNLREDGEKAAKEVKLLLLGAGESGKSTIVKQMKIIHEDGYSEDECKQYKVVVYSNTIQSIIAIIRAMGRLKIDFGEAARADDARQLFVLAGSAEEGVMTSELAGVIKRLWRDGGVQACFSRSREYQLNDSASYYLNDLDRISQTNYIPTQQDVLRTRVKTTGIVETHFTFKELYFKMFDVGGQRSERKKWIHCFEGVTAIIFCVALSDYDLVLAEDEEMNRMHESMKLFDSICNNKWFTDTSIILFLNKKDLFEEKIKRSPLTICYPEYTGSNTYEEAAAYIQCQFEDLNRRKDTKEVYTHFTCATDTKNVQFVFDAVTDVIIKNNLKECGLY
# * = called active by the depositor. Only part of the results is shown; rates above refer to the full screens.
GIV Gai3 FP	molecule
107	CN1CCC(N2CCN(c3ncccc3-c3nnc(-c4ccc(Cl)cc4)o3)CC2)CC1
114	CSc1nc2ccc(NC(=O)CSc3nc4ccccc4[nH]3)cc2s1
112	CCN(CC)S(=O)(=O)c1ccc(C(=O)Nc2c3c(nn2-c2ccc(Cl)cc2)CS(=O)(=O)C3)cc1
104	O=C(NCc1ccncc1)C1CCCN(c2ncnc3c2oc2ccccc23)C1 (centres undefined)
100	Cc1cccc2cc3c(nc12)-c1ccccc1C3=O
112	CC1(C)CC(=O)C2=C(C1)c1c(ccc3ccccc13)NC2c1ccc(-c2ccccc2Cl)o1 (centres undefined)
113	O=C1/C(=C/c2ccc(-c3ccc(Br)cc3)o2)C=C(c2ccccc2)N1c1ccc2ncccc2c1
105	Cc1ccnc(NC(=O)c2nn3c(C(F)(F)F)cc(-c4ccco4)nc3c2Br)c1
106	O=C1N(Cc2cccc(Cl)c2)c2ccccc2S(=O)(=O)N1c1ccc(Cl)cc1
111	COc1ccc(C2=N/C(=C/c3cc(Br)c(OC(C)=O)c(OC)c3)C(=O)O2)cc1
104	O=S(=O)(c1ccc(Br)s1)N1CCCCCC1c1cccs1 (centres undefined)
120	O=C1NN(c2ccccc2)C(=O)/C1=C1\C(=O)N(Cc2cccc3ccccc23)c2ccccc21
110	CCOC(=O)c1nnn(-c2nonc2N)c1CN1CC(C)OC(C)C1 (centres undefined)
106	CCCc1nnc(-c2cccs2)o1
106	CS(=O)(=O)NC1CCCN(c2cc(N3CCCC3)ncn2)C1 (centres undefined)
108	O=C1c2ccccc2C(=O)c2cc(S(=O)(=O)N3CCN(C/C=C/c4ccccc4)CC3)ccc21
102	CC(=O)Nc1c(C)noc1/C=C/c1ccc(S(=O)(=O)N2CCC(C)CC2)s1
101	Cc1ccc(S(=O)(=O)NC2CCN(C(=O)CN3C(=O)COc4ccccc43)CC2)cc1
105	CCc1cc(Sc2ccc(NC(=O)Nc3ccc4c(c3)OCCO4)cc2)n2nc(C)nc2n1
101	COCCCNC(=O)CSc1nc2cc(C(=O)NCC3CCCO3)ccc2c(=O)n1Cc1ccco1 (centres undefined)
93	O=C(Nc1cccc(F)c1)N1CCN(Cc2cc(=O)n3nc(-c4ccc(F)cc4)sc3n2)CC1
119	Cc1oc(-c2cccc(Cl)c2)nc1Cn1nnc(-c2nc(-c3ccccc3)no2)c1C
108	CC1CCN(CCCNC(=O)C2CCc3sc(C(=O)N(C)C)cc3C2)CC1 (centres undefined)
114	O=c1c2c3c(sc2nc2n1CCCCC2)CCCC3
101	Cc1cc(NC(=O)CN2c3ccccc3NC3=C(C(=O)CC(C)(C)C3)C2c2ccccc2)no1 (centres undefined)
102	Cc1ccc(N2CCN(S(=O)(=O)c3ccc(-c4nnc(C5CCC5)o4)o3)CC2)cc1
105	Cc1cc(S(=O)(=O)N(Cc2ccco2)CC2CCCO2)ccc1F (centres undefined)
104	CCOC(=O)C1CCN(C(c2ccccc2)c2c(O)cc(C)n(Cc3ccccc3)c2=O)CC1 (centres undefined)
104	C=CCC1(O)C(=O)N2C(=C1C(=O)N1CCCCC1)c1ccccc1CC2(C)C (centres undefined)
100	CCCC(=O)N1CCCC1C(=O)N1CCCCC1C (centres undefined)
104	Cc1cc(C(=O)N2CCCC2c2cc(C(C)C)on2)no1 (centres undefined)
100	CCOc1ccc(NC(=O)C2CC(=O)N(Cc3ccc4c(c3)OCO4)C(=Nc3ccccc3)S2)cc1 (centres undefined)
111	CCOC(=O)C1=C(CSc2nc(N)c(C#N)c(-c3ccc(F)cc3)c2C#N)OC(N)=C(C#N)C1c1ccccc1Cl (centres undefined)
100	CCN1CCN(c2cc(C)nc3nc(CN4CCCCC4C)nn23)CC1 (centres undefined)
100	CCc1nn2c(S(=O)(=O)NC3CCCC3)c(C)nc2s1
111	Cc1cccc(NC(=O)c2c(NC(=O)c3ccccc3)sc3c2CCCCC3)c1
103	CCc1cc(C2CCCN2Cc2cn[nH]c2-c2cccc(Br)c2)on1 (centres undefined)
112	CCOc1cc(-c2nc3sc4c(c3c(=O)[nH]2)CCCC4)cc(Br)c1OCc1ccccc1
98	O=C(Nc1cccc(Br)c1)Nc1ccc(F)c(-c2nnc(-c3ccccc3)o2)c1
97	Cc1cc(N2CCCC2)n2nc(CN3CCN(C)CC3)nc2n1
106	O=S1(=O)N=C(SCc2ccccc2)Nc2ccc(F)cc21
106	COc1cc(OC)cc(C(=O)N2CCc3c(c(C(=O)N4CCCC(C(=O)NC5CC5)C4)nn3C)C2)c1 (centres undefined)
96	O=C(Nc1cnn(-c2ncc(N3CCSCC3)cn2)c1)C1CCCC1
105	CCOC(=O)CC1(NC(=O)N2CCC3(CC2)Nc2cc(OC)ccc2-n2cccc23)CCCCC1
93	CCc1ccc(S(=O)(=O)c2cnc(N3CCN(c4cccc(C)c4)CC3)nc2N)cc1
101	O=S(=O)(c1ccc(F)cc1)N1CCc2nc[nH]c2C1
105	COC(=O)c1c(-c2ccc(Cl)cc2)noc1Nc1ccccc1OC
110	COc1cccc(C2C(C#N)=C(N)OC3=C2C(=O)CC(C)(C)C3)c1OC(=O)N1CCOCC1 (centres undefined)
103	Cc1c(C(c2cc(Cl)cc([N+](=O)[O-])c2O)c2c(C)n(C)n(-c3ccccc3)c2=O)c(=O)n(-c2ccccc2)n1C
101	Cc1ccc(N2CCN(c3ccc(C)cc3)C2c2ccc(Br)cc2)cc1
105	Cc1nnc(NC(=O)CSc2nnc3ccc(-c4cccnc4)nn23)s1
110	CCOC(=O)C1CCN(CN2C(=O)C3(OCC(C)(c4ccccc4)CO3)c3ccccc32)CC1 (centres undefined)
107	CCCCCCCCCCOc1ccc(-c2ncc(CCCCCCCC)cn2)cc1
102	CCOc1ccc(C2=NN3C(C2)c2cccc(OC)c2OC3c2ccc(OCC)cc2)cc1 (centres undefined)
107	Cc1nc(N2CCOCC2)c2c(C)c(C(=O)Nc3ccc([N+](=O)[O-])cc3C)sc2n1
100	CC(C)C(=O)Nc1cccc(-c2ccc3cc(C(C)C)ccc3n2)c1
112	COC(=O)N1CC(=O)N(OC)C1c1ccc(Cl)cc1Cl (centres undefined)
97	Cn1c(SCC(=O)N2CCN(c3ccccc3F)CC2)nc2cc(-c3ccccc3)sc2c1=O
106	COC(=O)c1ccc(C2Oc3c(OC)cccc3C3CC(c4cccnc4)=NN32)cc1 (centres undefined)
102	CCOc1ccc(NC(=O)Nc2ccc(SCc3nnc(-c4ccccc4)o3)cc2)cc1

# Five entries from above, ordered by SMILES length, falling.
GIV Gai3 FP	molecule
103	Cc1c(C(c2cc(Cl)cc([N+](=O)[O-])c2O)c2c(C)n(C)n(-c3ccccc3)c2=O)c(=O)n(-c2ccccc2)n1C
110	CCOC(=O)C1CCN(CN2C(=O)C3(OCC(C)(c4ccccc4)CO3)c3ccccc32)CC1 (centres undefined)
97	Cn1c(SCC(=O)N2CCN(c3ccccc3F)CC2)nc2cc(-c3ccccc3)sc2c1=O
100	CC(C)C(=O)Nc1cccc(-c2ccc3cc(C(C)C)ccc3n2)c1
107	CCCCCCCCCCOc1ccc(-c2ncc(CCCCCCCC)cn2)cc1

# Continued.
GIV Gai3 FP	molecule
101	COc1ccc(C2C3=C(Nc4ncnn42)c2ccccc2OC3c2cccc([N+](=O)[O-])c2)cc1 (centres undefined)
99	CCC(C)NC(=O)CSC1=Nc2cc(C)c(C)cc2N=C(c2cccc(OC)c2)C1 (centres undefined)
110	Nc1nnc(SCC(=O)Nc2ccc(NC(=O)CSc3nnc(N)s3)c(Cl)c2)s1
102	CCOC(=O)c1ccc(Nc2nc3nonc3n3cnnc23)cc1
98	Cn1c(=O)n(CC(=O)N2CCCC2)c(=O)c2cc(S(=O)(=O)N3CCCC3)ccc21
101	CCOC(=O)C(NC(=O)c1ccccc1Cl)(Nc1sc2c(c1C#N)CCCC2)C(F)(F)F (centres undefined)
108	CSC1=NC(=Nc2ccccc2)C2(CCCCC2)N1c1ccc(Cl)cc1
98	CCCS(=O)(=O)c1nc2ccc(NS(=O)(=O)Cc3cc(F)cc(F)c3)cc2s1
104	Cn1c(=O)c(C(=O)Nc2ccccc2)cc2cccnc21
99	CC(C)c1ccc(NC(=O)Cn2nc3c4sc(N(C)C)nc4ncn3c2=O)cc1
98	O=S(=O)(NC1CCCC1)c1cccc2nsnc12
123	CC(=O)N[C@H]1[C@H](Oc2ccc3ccccc3c2)O[C@H](CO)[C@@H](O)[C@@H]1O
109	O=S(=O)(NCCc1n[nH]c(Cc2ccc(F)cc2)n1)c1ccc(F)cc1
101	CCCCCCC1(C)NC(=S)N(c2ccc(C)cc2)N1 (centres undefined)
106	Cc1ccc(CC(=O)Nc2c(C)nc3sccn3c2=O)cc1
105	Cc1nn(-c2ccccc2)c2sc(C(=O)OCCN(C)c3nsnc3Cl)cc12
156	Cc1cccc(N=C2NC(=O)/C(=C\c3ccc(O)c(Br)c3)S2)c1
113	COc1cccc(NS(=O)(=O)c2cc(C(=O)N3CCN(C)CC3)ccc2NCCc2ccc(OC)c(OC)c2)c1
99	CCC(=O)Nc1nc2cc(NC(=O)Nc3cccc(OC)c3)ccc2s1
103	Cn1nc(C(=O)N2CCCC(C(=O)NC3CC3)C2)c2c1CCN(C(=O)c1ccc(C(C)(C)C)cc1)C2 (centres undefined)
98	CCOC(=O)C1=C(C)NC2=C(C(=O)C(C(=O)OCC)C(c3ccc(OC)cc3)C2)C1c1cccc(Br)c1 (centres undefined)
103	CC(C)c1cc(C2CCCN2C(=O)c2cnn3cc(Br)cnc23)on1 (centres undefined)
114	O=C(NCc1ccc(Cl)cc1)C1CCCN(c2ccncc2)C1 (centres undefined)
96	O=C(NCC1CCCO1)c1cccc(NC(=O)c2nsc3ccccc23)c1 (centres undefined)
106	O=C(NCC1COc2ccccc2O1)c1ccc2c(=O)n(Cc3ccc4c(c3)OCO4)c(=S)[nH]c2c1 (centres undefined)
97	Cc1nc(N2CCCCC2C)c2c(C)c(C(=O)Nc3cnc4ccccc4c3)sc2n1 (centres undefined)
101	Cc1c(CN2CCCC(C)C2)nnn1-c1ccc(F)cc1 (centres undefined)
100	COc1ccc(NC(=O)c2nnc(C3CCN(S(=O)(=O)c4ccc(C)cc4C)CC3)s2)cc1
102	COc1ccc2c(c1)C(=NNC(=O)c1ccncc1)c1cc(OC)ccc1-2
100	O=S(=O)(c1cc(F)ccc1F)N1CCN(c2ncnc3c2nnn3-c2ccccc2)CC1
101	COc1ccccc1Nc1ncnc2c1cnn2-c1ccc(C)cc1C
109	Cc1c(C(=O)Nc2ccc(Oc3ccccc3)cc2)sc2ncn(CC(=O)Nc3cccc(C(F)(F)F)c3)c(=O)c12
110	COc1ccccc1N1C(=O)C2C3c4ccc(C(C)(C)C)cc4C(c4ccc(C(C)(C)C)cc43)C2C1=O (centres undefined)
115	COc1cc(NC(=O)CSc2nc3[nH]ncc3c(=O)n2-c2ccc(Cl)c(C)c2)cc(OC)c1OC
108	CC1(C)CN(C(=O)C2CC2)c2ccc(S(=O)(=O)Nc3ccc(S(N)(=O)=O)cc3)cc21
110	CC(=O)C1=NN(c2ccccc2[N+](=O)[O-])C2(S1)c1ccccc1C(c1ccc(C)cc1)=NN2c1ccccc1 (centres undefined)

# 4 entries from above, with each value named:
CSc1nc2ccc(NC(=O)CSc3nc4ccccc4[nH]3)cc2s1
  GIV Gai3 FP: 114
CCOc1ccc(C2=NN3C(C2)c2cccc(OC)c2OC3c2ccc(OCC)cc2)cc1 (centres undefined)
  GIV Gai3 FP: 102
Cc1cc(S(=O)(=O)N(Cc2ccco2)CC2CCCO2)ccc1F (centres undefined)
  GIV Gai3 FP: 105
COc1ccccc1Nc1ncnc2c1cnn2-c1ccc(C)cc1C
  GIV Gai3 FP: 101

# Next part.
GIV Gai3 FP	molecule
108	COc1ccc(-c2nnc(-c3cccnc3N3CCC4(CC3)OCCO4)o2)cc1
106	Cc1cccc(OCCCC(=O)Nc2nnc(C(C)C)s2)c1
104	Cc1nn(CC(=O)N2CCCC2)c(C)c1S(=O)(=O)N1CCCC(C(=O)N2CCc3ccccc32)C1 (centres undefined)
101	Cc1cccc(NC(=O)c2ccc3nnc(SCC(=O)Nc4ccccc4F)n3c2)c1
104	O=C(C1CCN(S(=O)(=O)c2ccc(-c3noc(CCC4CCCC4)n3)cc2)CC1)N1CCCC1
106	CCOc1ccc(NC(=O)CSc2nc3ccccc3c(=O)n2CC2COc3ccccc3O2)cc1 (centres undefined)
95	CCC(C(=O)NCC(=O)Nc1nc2ccccc2[nH]1)c1ccccc1 (centres undefined)
105	COCCNc1nc(SCC(=O)NCCC(C)C)nc2ccccc12
117	CCCS(=O)(=O)c1c(S(=O)(=O)CCC)c2c(N)cccn2c1C(=O)c1ccc(OC)c(OC)c1
101	CCOc1ccc(C2CC(=O)NC(SCC(=O)Nc3ccc(Cl)cc3)=C2C#N)cc1OC (centres undefined)
101	CCNC(=O)N1CCCC(c2nc(CC)cs2)C1 (centres undefined)
120	COc1ccc(CCNC(=O)CCn2c(SCC(=O)NC3CCCCC3)nc3ccccc3c2=O)cc1OC
106	O=S(=O)(NC1CCCCC1)c1cc(-c2nnc(C3CC3)o2)cs1
104	Cn1ccnc1SCC(=O)Nc1ccc2nc(SCC(=O)N3CCOCC3)sc2c1
114	COc1ccc(Cn2c(=O)c3c(n4c(SC(C)C)nnc24)-c2ccccc2CC32CCCCC2)cc1
104	COc1ccc(OC)c(N2C(N)=C(C#N)C(c3ccc(OC)c(O)c3)C3=C2CCCC3=O)c1 (centres undefined)
103	Cc1ccc(C(=O)N/C(=C\c2cccnc2)C(=O)NCCc2c[nH]c3ccccc23)cc1
96	CCn1c(=O)c(N2CCN(C(=O)c3ccc(Cl)cc3)CC2)nc2cccnc21
103	O=C(c1cccn(Cc2ccccc2)c1=O)N1CCc2ccccc21
126	COc1ccc2oc(=Nc3ccc(C(=O)O)cc3)c(C(=O)NCc3ccco3)cc2c1
111	Cc1ccc(N2C(=O)CS(=O)(=O)C2c2ccc([N+](=O)[O-])cc2)c(Br)c1 (centres undefined)

# High-throughput results (PubChem BioAssay)
